ClpP mod: qHTS Assay for Activators of ClpP; ATP-dependent Clp protease proteolytic subunit (Bacillus subtilis (strain 168)), P80244; purified B. subtilis ClpP, FRET peptide cleavage, 20 min; Potency, µM (doses to about 57.5 µM), inactives show top-dose activity change, negative = active; 340,000 compounds, 1.9% hits; AID 651965, 2013; active = well fitted falling curve with a large enough effect; inconclusive = small, poorly fitted or top-dose-only effect; inactive = no such curve, though single readings can be large or run the other way; also: potency is read from the fitted curve at half-maximal effect; the source files actives as falling curves though it sought activators and does not explain the sign; nearly all actives have a fitted effect of over 65% in size; many hits overshoot -100%
Target sequence (P80244 whole entry, looked up): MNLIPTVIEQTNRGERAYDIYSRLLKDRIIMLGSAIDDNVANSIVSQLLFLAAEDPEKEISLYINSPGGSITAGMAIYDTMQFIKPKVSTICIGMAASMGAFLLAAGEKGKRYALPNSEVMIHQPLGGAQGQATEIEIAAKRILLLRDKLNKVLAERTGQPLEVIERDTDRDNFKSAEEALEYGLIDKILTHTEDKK
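Buffer: 100 mM Tris/HCl pH8, 100 mM KCl, 0.05% low protease BSA, 2.5% glycerol, 0.01% Tween-20. ClpP 10 microg/mL final; 20 min RT; delta FRET normalized to ADEP and DMSO controls.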
Menin MLL FP FL: displaces fluorescein MLL peptide from human menin; Fluorescence polarization, fluorescein-MLL peptide displacement from menin; FP activity change, % at 61.4 µM; 290,000 tested, under 10 active; AID 1766; inconclusive = falling polarisation curve, or a change in total fluorescence; inactive = total fluorescence flat and polarisation flat or rising; no compound was filed as active; the % refers to the polarisation; negative = inhibition;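 also: % of control where 0% means no effect; inhibitors lower the polarisation; unlabelled MLL peptide was the positive control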
PINK1 modulator: changes PINK1 expression | PINK1 immunofluorescence, high-content cytometry, 24 h | Potency, µM (top dose mostly 76.6 µM), for inactives: top-dose activation (PINK1 increase), usual class: activators | 410,000 compounds, 0.2% hits; active = well fitted activation curve with a large enough effect; inconclusive = small, poorly fitted or top-dose-only effect; inactive = flat fitted curve, though single readings scatter; cell line not stated here;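 also: potency is read from the fitted curve at half-maximal effect; % of control where 0% means no effect; nearly all actives have a fitted effect of over 65% in size; a mitochondrial uncoupler was the plate control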
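PINK1 protein level read as immunofluorescence by microplate cytometer in a fixed, stained stable cell line after 24 h exposure to five compound concentrations, with CCCP as control.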
TRPML1 inh: blocks the human TRPML1 channel; TRPML1-inducible cells, Ca2+ dye fluorescence, FDSS; stronger effect = lower value; inhibition of EC80 agonist-evoked calcium signal; 390,000 compounds, 0.02% hits; Q9GZU1; activity change, negative = inhibition, % (concentration not given with the values); in the data active means activity change below about -50%; inconclusive means about -30% to -50%; inactive means above about -30%;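 also: stimulus is agonist 54-4 at its EC80 concentration; % is scaled to controls: 0 for no effect and ±100 for the full control effect; the text of the record puts the active cut at -80%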
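TRPML1-DL cells, Tet-induced overnight (~16 h, 37 °C) at 1,500 cells/well, were loaded with Ca8 no-wash dye plus quencher for 45-90 min at room temperature. Compounds were pinned during FDSS kinetic reading; agonist 54-4 at EC80 (4 uM final) then added.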
TRPV1 PAM: human TRPV1 potentiation. Q8NER1. TRPV1-expressing cells, Fluo-8 calcium influx, capsaicin EC20 potentiation; host cell line not named in the record; control for the full effect not named in the record. potentiation, % at 8.33 µM. 320,000 compounds, 0.02% hits; active means potentiation above 80%; inconclusive means 30% to 80%; inactive means below 30%; also: 0% is about no effect
Target sequence (Q8NER1 whole entry, looked up): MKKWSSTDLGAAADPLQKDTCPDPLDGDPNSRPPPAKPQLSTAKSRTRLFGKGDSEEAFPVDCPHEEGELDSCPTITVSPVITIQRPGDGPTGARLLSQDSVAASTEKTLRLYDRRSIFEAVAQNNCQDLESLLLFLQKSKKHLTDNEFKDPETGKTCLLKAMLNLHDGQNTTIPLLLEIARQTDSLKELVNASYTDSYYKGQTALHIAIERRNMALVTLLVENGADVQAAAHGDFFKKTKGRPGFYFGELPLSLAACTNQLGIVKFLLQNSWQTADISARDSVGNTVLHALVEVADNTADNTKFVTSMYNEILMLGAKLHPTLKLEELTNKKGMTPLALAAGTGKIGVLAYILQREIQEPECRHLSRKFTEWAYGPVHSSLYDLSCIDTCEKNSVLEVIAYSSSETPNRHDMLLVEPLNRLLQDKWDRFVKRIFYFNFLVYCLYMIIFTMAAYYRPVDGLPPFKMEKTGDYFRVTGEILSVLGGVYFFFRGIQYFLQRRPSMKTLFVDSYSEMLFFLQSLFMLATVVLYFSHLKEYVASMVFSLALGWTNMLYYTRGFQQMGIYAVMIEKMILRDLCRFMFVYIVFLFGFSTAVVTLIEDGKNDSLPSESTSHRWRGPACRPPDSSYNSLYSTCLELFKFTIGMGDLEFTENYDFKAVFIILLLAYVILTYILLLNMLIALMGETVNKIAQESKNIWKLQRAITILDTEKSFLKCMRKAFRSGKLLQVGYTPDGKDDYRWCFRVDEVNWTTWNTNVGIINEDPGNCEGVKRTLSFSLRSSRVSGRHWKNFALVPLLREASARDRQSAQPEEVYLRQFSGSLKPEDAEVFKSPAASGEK
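Cells expressing TRPV1 were dye-loaded with Fluo-8 and read kinetically: 10 s baseline, 3 min after compound (agonist portion), then 2 min after EC20 capsaicin (allosteric enhancer portion). Calcium-bound dye fluorescence at 480/520 nm.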
TRPML1 ag: agonists of human TRPML1 channel; Q9GZU1; TRPML1-expressing cells, Ca2+ dye fluorescence, FDSS; host cell line not named in the record; reference of the full effect not given here; activation, % (test concentration not listed); 410,000 compounds, 0.12% hits; in the data active = activation above about 50%; inconclusive = about 30% to 50%; inactive = below about 30%; also: 0% is about no effect; the text of the record puts the active cut at 80%
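Tetracycline-induced TRPML1-DL cells are seeded and incubated overnight before loading with a no-wash Ca2+ dye and quencher. Agonist activity is taken from the 110 s fluorescence read following compound pin-transfer on an FDSS, before EC80 54-4 challenge.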
Sfp inh: inhibitors of Bacillus subtilis Sfp phosphopantetheinyl transferase. Q9F4F7. Biochemical Sfp PPTase activity, qHTS. Potency, µM, inactives show max response, negative = inhibition, actives largely listed as inhibitors. 310,000 compounds, 3.5% hits. AID 1490; active = well fitted inhibition curve with a large enough effect; inconclusive = small, poorly fitted or top-dose-only effect, or another doubt; inactive = no such curve, though single readings can be large or run the other way;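 also: the enzyme is Sfp with the accession as filed and its product quenches rhodamine fluorescence; potency is read from the fitted curve at half-maximal effect; 0% = enzyme reaction without inhibitor and -100% = no enzyme wells; top concentration of the series not given in the record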
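Fluorescence-quenching assay: 15 nM Sfp-PPTase preincubated 15 min at room temperature with compound, then 5 uM rhodamine-CoA and 12.5 uM BHQ-2-labelled YbbR peptide added. Fluorescence (ex 525/em 598 nm) read at start and after 30 min; difference gives rate.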
* marks the source's active call; other numbers are inactive results; u = inconclusive; x = no result given; & = joins results of further samples; [ ] = remark or other dose.

SMILES	ClpP mod	Menin MLL FP FL	PINK1 modulator	TRPML1 inh	TRPV1 PAM	TRPML1 ag	Sfp inh
Cc1ccc(-c2csc(C(O)c3ccc(F)cc3)n2)cc1C (centres undefined)	-0.9%	x	0.5%	1	x	-0.4	x
Cc1ccc(C)c(NC(=O)CN(C)C(=O)COc2cccc3c2OC(C)(C)C3)c1	-0.1%	x	-0.1%	6	7	-0.4	x
CCN(CC(=O)Nc1c(F)cccc1F)C(=O)CSCC(=O)Nc1cccc(C)c1	1.0%	x	1.0%	-5	4	-0.7	x
CC(=O)Nc1ccc(S(=O)(=O)N2c3ccccc3C(C)=CC2(C)C)cc1	1.9%	0.2	2.8%	1	-12	0.6	2%
CCCCN(C(=O)c1cccc(S(=O)(=O)N2CCOCC2)c1)c1c(N)n(CCC)c(=O)[nH]c1=O	-0.8%	0.0	-0.3%	7	1	0.1	15%
C/C(=N\NC(=O)c1csc2ccccc12)c1ccc(O)cc1	-4.2%	-0.8	4.3%	34	-4	1.8	-3%
COc1ccc2oc(=O)c(/C(N)=N/NC(=O)c3ccncc3)cc2c1	x	u	3.6%	-15	-4	-0.1	-16%
CCCCn1c(SCC(=O)NCc2cccs2)nc2c1c(=O)n(C)c(=O)n2C	0.0%	-0.4	u	-7	23	-0.1	-4%
O=C(O)c1cc(S(=O)(=O)N2CCCCCC2)ccc1Cl	-1.7%	-4.8	-4.4%[38.3 µM]	-15	10	1.4	9%
CC(=O)N/C(=C/c1ccc2c(c1)OCO2)C(=O)N1CCOCC1	-2.7%	9.7	-0.9%	-7	2	1.3	24%
O=S(=O)(NNC(=S)NCC1CCCO1)c1cc(Cl)ccc1Cl (centres undefined)	-3.5%	x	1.8%	-1	-8	0.9	5%
Cc1ccc(C2=CC(c3cccs3)n3nnnc3N2)cc1 (centres undefined)	-0.9%	u	2.6%	-1	8	1.6	-6%
CCOC(=O)C1=C(N)N(c2ccc(C)cc2)C2=C(C(=O)CCC2)C1c1cccs1 (centres undefined)	-0.5%	3.4	1.2%	-6	-19	1.4	-18%
O=C(COc1ccc2c3c(c(=O)oc2c1)CCC3)NCc1ccccn1	4.0%	x	-0.6%	-14	-12	-1.2	6%
CC(C)N(C)C1=CC(=O)C(N(C)C(C)C)=CC1=O	u	x	-2.2%	2	x	0.0	x
O=c1ccc(-c2ccc(S(=O)(=O)N3CCCCC3)o2)n[nH]1	-19%	2.2	0.3%	-13	6	0.2	16%
O=C1OC(N2CCN(C/C=C/c3ccccc3)CC2)c2ccccc21 (centres undefined)	1.4%	1.3	-0.7%	1	1	-0.1	9%
Cc1ccc(S(=O)(=O)N2CCCCC2)cc1NC(=O)COC(=O)C1CC1	-1.1%	x	-1.4%	2	x	-0.1	x
CC(=O)N1CCCc2cc(S(=O)(=O)N3CCCC(C(=O)NC(C)C)C3)ccc21 (centres undefined)	1.5%	x	0.3%	-20	x	0.4	x
CCOC(=O)C1CCN(C(=O)c2ccc(OCC(=O)Nc3cccc(C(F)(F)F)c3)cc2)CC1	x	x	-0.9%	41	10	1.6	13%
CC(C(=O)NCC1(c2ccccc2)CCCC1)N1CCCC1 (centres undefined)	-1.4%	-0.7	-0.8%[38.3 µM]	-15	-6	0.3	8%
Cn1c(=O)c2c(nc(CN3CCN(Cc4ccccc4)CC3)n2Cc2cccc(Cl)c2)n(C)c1=O	-3.0%	0.5	-1.2%	3	4	0.1	-1%
Cc1cc(NC(=O)CSc2ncc(C(=O)Nc3ccc(Cl)cc3)c(=O)n2C)no1	4.4%	x	25%	12	x	1.9	x
CCCCN(CCCC)C(=O)c1cn(CC)c2cc(N3CCN(C)CC3)c(F)cc2c1=O	x	4.3	1.6%	-20	u	-0.1	8%
COc1cc(C(=O)OCC(=O)NCCC2=CCCCC2)cc(OC)c1OC	-3.2%	x	2.7%	-11	8	0.0	x
COc1cc(CCC(=O)Nc2cc(Cl)ccc2N2CCN(C)CC2)cc(OC)c1OC	-0.4%	3.2	u	-23	-16	1.1	-7%
CCOc1ccnc(OCC)c1Br	-0.3%	-4.8	2.9%	-14	-8	-0.1	17%
Clc1cccc(-n2ncc3c(NCCCN4CCOCC4)ncnc32)c1	-4.8%	x	5.6%	1	x	0.6	x
CN(C)CCNC(=O)C1CCN(S(=O)(=O)c2ccc3ccccc3c2)CC1	x	x	-0.8%	-2	-1	-0.3	11%
O=C(c1ccccc1Nc1ccc(SC(F)F)cc1)N1CCCCCC1	-0.4%	7.3	-3.8%	25	4	0.6	u
C[C@@]12CCC3[C@@](CCC4[C@@]3(C)CCC[C@@]4(C)C(=O)Nc3ccc(Cl)cc3)(CC1=O)C2 (some centres undefined)	0.7%	x	3.1%	63	-12	-0.4	x
CC(Sc1nc2cc(Cl)ccc2s1)C(=O)Nc1ccc2c(c1)OCO2 (centres undefined)	0.6%	6.5	5.3%	-3	-4	-0.7	u
O=C(O)/C=C/C(=O)NCCc1cccc(Cl)c1	0.1%	-0.3	3.3%	17	-1	-0.4	11%
C[C@H]1C=C(C(=O)NC2CC2)O[C@@H](OCc2ccc(CO)cc2)C1	-0.3%	-1.7	-0.3%	0	10	0.8	17%
C[N+]1(CC(=O)OC2CCCCCCCCCCC2)CCCC1	x	-3.2	4.5%	u	-4	-0.5	0%
CC1(C(=O)NS(=O)(=O)c2ccccc2Cl)CCN1C(=O)Cc1cccs1 (centres undefined)	-0.6%	x	0.9%	x	x	-0.2	x

Arranged by SMILES length (smallest number first): part of the list above.
SMILES	ClpP mod	Menin MLL FP FL	PINK1 modulator	TRPML1 inh	TRPV1 PAM	TRPML1 ag	Sfp inh
CCOc1ccnc(OCC)c1Br	-0.3%	-4.8	2.9%	-14	-8	-0.1	17%
COc1cc(C(=O)OCC(=O)NCCC2=CCCCC2)cc(OC)c1OC	-3.2%	x	2.7%	-11	8	0.0	x
CC(Sc1nc2cc(Cl)ccc2s1)C(=O)Nc1ccc2c(c1)OCO2 (centres undefined)	0.6%	6.5	5.3%	-3	-4	-0.7	u
CN(C)CCNC(=O)C1CCN(S(=O)(=O)c2ccc3ccccc3c2)CC1	x	x	-0.8%	-2	-1	-0.3	11%
C[C@H]1C=C(C(=O)NC2CC2)O[C@@H](OCc2ccc(CO)cc2)C1	-0.3%	-1.7	-0.3%	0	10	0.8	17%

Remaining list, next part:
SMILES	ClpP mod	Menin MLL FP FL	PINK1 modulator	TRPML1 inh	TRPV1 PAM	TRPML1 ag	Sfp inh
CSc1cccc(NC(=O)C2CCN(C(=O)c3ccccc3C)CC2)c1	0.4%	3.8	-0.3%	4	-10	-1.0	22%
O=C1OC(N2CCN(c3ccccn3)CC2)c2ccccc21 (centres undefined)	u	0.3	-0.6%	3	14	2.5	11%
O=C(NC1CCCCC1)c1ccc(CSc2nc3ccncc3n2Cc2ccccc2F)cc1	-6.4%	x	1.4%	-13	x	0.5	x
COc1ccccc1NC(=O)c1nc[nH]c1C(=O)Nc1ccccc1OC	32%	1.1	2.4%	-3	27	0.6	56µM*
CCOc1ccccc1N(C(=O)c1snc(C(N)=O)c1N)C(C(=O)NCCC(C)C)c1ccco1 (centres undefined)	-26%	0.6	0.3%	-9	5	2.0	-12%
COc1ccc(CN2CC[C@@H]3CN(C(C)=O)[C@H](c4ccccc4Br)C[C@@H]32)cc1	-1.2%	x	0.0%	x	x	-0.8	x
O=C(O)c1ccc(Sc2nnc3ccccn23)c([N+](=O)[O-])c1	x	1.2	0.8%	4	9	0.7	3%
COc1ccc(CCNC(=O)c2ccc(CNS(=O)(=O)c3ccccc3)cc2)cc1OC	-0.3%&-4.6%	7.4	0.6%&-0.2%	34&77	2	-0.8&1.7	13%
CCN(CC)c1ccc(/C=C2\C(=O)c3ccc(C(=O)O)cc3C2=O)cc1	-1.5%	u	-0.5%	-16	3	78*	-20%
COCCNC(=O)c1onc(CSc2ccc(F)c(F)c2)c1C(=O)O	-0.5%	0.3	-1.2%	-4	-25	-0.5	16%
CC12CC(NC(=O)N1c1cccc(C(=O)N3CCN(c4ccccn4)CC3)c1)c1ccccc1O2 (centres undefined)	-22%	0.7	0.3%	-7	3	-0.7	15%
CCn1cc(C(=O)N2CCN(c3ccccc3)CC2)c(=O)c2cc(S(=O)(=O)N3CCOCC3)ccc21	-1.6%&-3.8%	x	-0.2%&-0.3%	0&4	10	-0.2&-0.7	12%
Cc1cc(C)c(C#N)c(Nc2cccc(Br)c2)n1	1.7%	-1.9	7.6%	-1	-5	-1.2	7%
C[N+](C)(C)CCNC(=O)c1cc[n+](Cc2ccccc2)c(/C=N/O)c1	14%	-14	-0.3%	11	2	0.5	3%
CC(C)(C)C(=O)N1CCN(c2ccnc3cc(Cl)ccc23)CC1	-1.7%	-1.4	-0.9%	x	1	x	-6%
COc1cccc(NC(=O)CSc2nc(O)c(C)c(=O)n2-c2ccc(C)cc2)c1	-0.8%	-2.0	4.4%	-2	18	-1.8	5%
COc1ccc(NC(=O)C2CCCN(S(=O)(=O)c3c(C)[nH]c(=O)[nH]c3=O)C2)cc1 (centres undefined)	-2.9%&0.9%	3.2	1.6%	4&3	6	-0.9&0.2	21%
COc1ccc(C2C3=C(CCCC3=O)Nc3nc(SCc4ccccc4)nn32)cc1OC (centres undefined)	u	2.8	8.7%	-1	-40	-1.3	2%
Cc1ccc(-c2nnn(CC(=O)Nc3ccc4nn(-c5ccccc5)nc4c3)n2)o1	14µM*	6.6	6.0%	3	1	0.3	-5%
COc1ccc(C(=O)N2CCCCCCC2)cc1OC1CCN(C(C)C)CC1	-3.0%	3.4	-1.0%	-9	-3	-0.4	9%
CCN(CC(=O)Nc1c(F)cccc1F)C(=O)Cc1ccc2c(c1)OCCO2	0.5%	x	3.9%	27	-1	-1.8	x
O=C(N=Nc1ccc(NOC(=O)c2ccccc2Br)cc1)c1ccccc1O	x	-4.8	x	x	10	x	79µM*
Cc1cccc(NC(=O)C(C)Oc2ccccc2C)n1 (centres undefined)	0.8%	0.8	0.2%	11	-25	2.9	5%
O=C(O)C1[C@H]2C(=O)N(C3CCCC3)C[C@]23C=C[C@H]1O3 (some centres undefined)	-0.7%	-0.3	x	30	12	0.3	20%

Screening results deposited in PubChem by National Center for Advancing Translational Sciences (NCATS).
